Cruzain Triton: cruzain (T. cruzi) inhibition with detergent; P25779; AID 1478; purified cruzain, Z-FR-AMC fluorescence, 0.01% Triton; Potency, µM, inactives show max response, negative = inhibition, usual class: inhibitors; hit rate 0.43% among 200,000; active means well fitted curve in the direction sought with a large enough effect; inconclusive means small, poorly fitted or top-dose-only effect, or another doubt; inactive means no such curve, though single readings can be large; an effect the other way counts as inactive or inconclusive;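 further: plate controls were neutral wells for no effect and buffer without enzyme for full effect; nearly all actives have a fitted effect of over 40% in size; top concentration of the series not given in the record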
Target sequence (P25779 123-467 limits assumed): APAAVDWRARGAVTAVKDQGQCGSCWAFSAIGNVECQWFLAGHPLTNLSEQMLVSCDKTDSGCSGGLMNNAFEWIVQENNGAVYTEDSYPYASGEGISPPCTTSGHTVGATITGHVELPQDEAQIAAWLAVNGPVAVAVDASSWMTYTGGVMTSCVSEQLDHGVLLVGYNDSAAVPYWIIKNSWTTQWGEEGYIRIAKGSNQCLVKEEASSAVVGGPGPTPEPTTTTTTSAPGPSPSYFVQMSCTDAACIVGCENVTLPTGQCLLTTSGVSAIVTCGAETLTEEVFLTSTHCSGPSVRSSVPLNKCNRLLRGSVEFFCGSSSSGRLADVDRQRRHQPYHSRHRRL
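Steps: dispense cruzain (1.5 nM final) in acetate buffer pH 5.5 with DTT and 0.01% Triton X-100; pin-transfer compounds; incubate 15 min RT; add Z-FR-AMC (2 uM final); read fluorescence every 30 s, using the 60 s intensity change.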
Marburg entry inh: Marburg virus entry inhibition; Marburg virus pseudotyped entry inhibition, cell reporter; control for the full effect not named in the record; about a third of the inactives were read at about 46 µM; Potency, µM (titrated, usually from 37.8 µM), without a hit: at the highest dose activity change, negative = inhibition, hits mostly inhibitors; hit rate 1.8% among 300,000; active = well fitted inhibition curve with a large enough effect; inconclusive = small, poorly fitted or top-dose-only effect, or effect the other way; inactive = flat fitted curve, though single readings scatter; tested in HEK293 cells; about a fifth of its hits are not listed in these tables; further: on the % scale 0 is the no-effect control and ±100 the full control effect; luciferase read-out
NS1 inh: blocks influenza NS1 protein function. S. cerevisiae slowed by influenza A NS1, growth recovery by OD600. Potency, µM (series often up to 46.1 µM), without a hit: at the top dose activity, positive = more growth. hit rate 0.4% among 270,000; further: actives are rising curves; nearly all actives have a fitted effect of over 50% in size
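Growth recovery, yeast-based: influenza A NS1 expressed in S. cerevisiae causes slow growth, and suppressors are detected by OD600. The parent strain without NS1 is used as positive control.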
SARS PLpro yeast: inhibitors of SARS-CoV papain-like protease in yeast. S. cerevisiae expressing SARS-CoV PLpro, growth rescue; control for the full effect not named in the record. Potency, µM (highest dose often 32.9 µM), inactives show at the top dose activity, positive = growth rescue. hit rate 0.19% among 330,000; further: 0% is about no effect; nearly all actives have a fitted effect of over 55% in size; growth read by luminescence after 48 h
LASV entry inh: Lassa virus entry inhibition; AID 540256; hit rate 1.2% among 300,000; Potency, µM (highest dose often 37.9 µM), for inactives: at the top dose activity change, negative = inhibition, usual class: inhibitors; Lassa virus pseudotype entry inhibition, cell reporter; control for the full effect not named in the record; active means well fitted inhibition curve with a large enough effect; inconclusive means small, poorly fitted or top-dose-only effect, or effect the other way; inactive means flat fitted curve, though single readings scatter; tested in HEK293 cells; further: on the % scale 0 is the no-effect control and ±100 the full control effect; nearly all actives have a fitted effect of over 50% in size; luciferase read-out
2A StopGo: FMDV 2A StopGo reporter, luciferase signal; human cells with a luciferase reporter of 2A StopGo recoding; control for the full effect not named in the record; Potency, µM (doses to about 57.9 µM), without a hit: at the top dose signal change, negative = less light; hit rate 1.2% among 410,000; AID 1159524; active = well fitted falling curve with a large enough effect; inconclusive = small, poorly fitted or top-dose-only effect; inactive = no such curve, though single readings can be large or run the other way; tested in HEK293T cells; further: on the % scale 0 is the no-effect control and ±100 the full control effect; nearly all actives have a fitted effect of over 45% in size; luciferase light after 4 h
RE007 growth inh: less growth of the S. pombe RE007 Vpr strain; S. pombe RE007 Vpr strain, BacTiter-Glo ATP luminescence, 24 h; control for the full effect not named in the record; Potency, µM (top dose mostly 92.2 µM), for the others: at the highest dose activity change, negative = less growth; hit rate 0.21% among 360,000; active = well fitted falling curve with a large enough effect; inconclusive = small, poorly fitted or top-dose-only effect; inactive = no such curve, though single readings can be large or run the other way;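 further: on the % scale 0 is the no-effect control and ±100 the full control effect; nearly all actives have a fitted effect of over 50% in size; the assay follows cell death caused by Vpr and the record does not say whether a fall means rescue or toxicity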
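Fission yeast RE007 carrying one integrated HIV-1 vpr copy, seeded at OD 0.01 in PMG+AL medium with 23 nL pinned compound. Grown 24 h at 30 degrees; viability read by BacTiter-Glo luminescence after 5 min.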
Cruzain noTriton: inhibitors of Trypanosoma cruzi cruzain without detergent; P25779; purified cruzain, Z-FR-AMC fluorescence, no detergent; Potency, µM, without a hit: max response, negative = inhibition, most hits filed as inhibitors; hit rate 2.3% among 200,000; AID 1476; active means well fitted curve in the direction sought with a large enough effect; inconclusive means small, poorly fitted or top-dose-only effect, or another doubt; inactive means no such curve, though single readings can be large; an effect the other way counts as inactive or inconclusive;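 further: plate controls were enzyme without inhibitor for no effect and buffer without enzyme for full effect; nearly all actives have a fitted effect of over 40% in size; top concentration of the series not given in the record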
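Detergent-free condition (0.00005% Triton X-100) in acetate buffer pH 5.5 with DTT. 1.5 nM enzyme and compound were pre-mixed 15 min, then 2 uM Z-FR-AMC substrate added; reaction progress from fluorescence change between first and third reads (60 s).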
Active calls of the source: *; ? = inconclusive; . = no result given; & = joins results of further samples; [ ] = another dose, or the depositor's remark. Unless noted, the call rests on the fitted dose curve; in most records, active means well fitted rising curve with a large enough effect; inconclusive means small, poorly fitted or top-dose-only effect; inactive means no such curve, though single readings can be large or run the other way. Potency means the concentration at half of the fitted maximal effect.

structure | Cruzain Triton | LASV entry inh | RE007 growth inh | 2A StopGo | SARS PLpro yeast | NS1 inh | Cruzain noTriton | Marburg entry inh
CC(C)CC(=O)Nc1ccc([N+](=O)[O-])cc1Cl | . | . | -22% | -7% | 1% | 0% | . | .
COC(=O)c1ccc(COC(=O)c2ccc(-n3cnnn3)cc2)o1 | 0.4% | 4% | 25% | -12% | 4% | -3% | -14% | -2%
O=C(CCNS(=O)(=O)c1cccc2nsnc12)N1CC(=O)N(CCc2ccccc2)C(=O)C1 | -3.0% | -5% | -7% | -5% | 2% | 0% | -10% | 12%
CCc1ccc(NC(=O)C(C)OC(=O)c2ccc(N3CCCC3)c([N+](=O)[O-])c2)cc1 (stereo not drawn) | -4.3% | . | 2% | -4% | 15% | -35% | ? | .
Cc1ccc(C)c(NC(=O)CN2C(=O)CNC2=O)c1 | 2.4% | -3% | 12% | 0% | 0% | 5% | -1% | 19%[46.1 µM]
CC(C)[C@H](NC(=O)OCc1ccccc1)C(=O)OCc1ccccc1 | . | ? | 8% | -25% | -6% | -47% | . | -6%[46.1 µM]
COc1ccc(C2c3ccc(O)cc3Oc3ncn4nc(-c5ccncc5)nc4c32)cc1OC (stereo not drawn) | . | ? | 37% | ? | 1% | 8% | . | ?
O=C(Cn1nnc2ccccc2c1=O)Nc1ccc(S(=O)(=O)N2CCOCC2)cc1 | . | 3% | 0% | -15% | -4% | 8% | . | -12%[46.1 µM]
CCN1CCN(C(=O)CN(c2ccc(C)cc2)S(C)(=O)=O)CC1 | 7.0% | 5% | -2% | 20% | . | -1% | 2% | 0%
Cc1cccc(COc2coc(CN3CCN(C(=O)c4ccco4)CC3)cc2=O)c1 | . | 0% | 0% | -9% | -8% | . | . | 4%
COc1cc2c(cc1OC)CN(C(=O)c1cc(=O)c3ccccc3o1)CC2 | -1.2% | -22% | -9% | -25% | -3% | -3% | -5% | ?
C=CCOc1c(Br)cc(CNn2nnnc2N)cc1OC | 5.1% | -1% | -14% | -30% | 5% | 0%[9.22 µM] | -4% | -17%
O=C(c1cc(S(=O)(=O)N2CCOCC2)c(Cl)cc1Cl)N1CCN(S(=O)(=O)c2cccc(F)c2)CC1 | . | -26% | 0% | -27% | -1% | . | . | 3%
CCCCN(CCCC)CCNC(=O)Cn1nc(CC)n2c(cc3sccc32)c1=O | -2.1% | . | . | -22% | . | . | 27% | -1%[46.1 µM]
NC(=O)C1CCN(C(=O)CN(c2ccc3c(c2)OCCO3)S(=O)(=O)c2ccccc2)CC1 | . | 27% | -19% | 0% | -2% | . | . | 14%
Cc1nc2ccc(S(=O)(=O)NCC(=O)N3CCN(c4ccccc4)CC3)cc2s1 | 3.1% | -9% | 2% | -24% | 9% | -4% | 4% | -22%
CC(C)(C)N(NC(=O)c1ccccc1)C(=O)c1ccccc1 | 10.0% | 25%[14.3 µM] | -14% | 13% | -2% | 5% | 0% | 19%
CCn1c(SCc2nc3cc(OC)c(OC)cc3c(=O)[nH]2)nc2ccccc21 | . | 12%[46.1 µM] | 2% | -24% | 1% | -2% | . | 8%[46.1 µM]
N#Cc1ccccc1Cn1cnc2nc3c(cc2c1=O)CCCC3 | -0.7% | -1%[46.1 µM] | . | -12% | . | . | 3% | .
COc1cc2c(cc1OC)C(COc1ccc3c(C)cc(=O)oc3c1)N(C(=O)c1cccc(OC)c1OC)CC2 (stereo not drawn) | 16% | 2.8µM* | . | -30% | . | . | ? | -5%[46.1 µM]
CCN(CC)C(=O)CSc1nc(-c2ccco2)cc(C(F)(F)F)c1C#N | -17% | 8% | -8% | 0% | -9% | 10% | 2% | -5%
O=C(O)c1cccc(S(=O)(=O)N2CCSCC2)c1 | 3.0% | -20% | 8% | -8% | -1% | 2% | -3% | 4%[46.1 µM]
CCCCc1ccc(-n2nc3cc(Cl)c(NC(=O)c4ccc(OC)cc4)cc3n2)cc1 | 0.8% | -3%[46.1 µM] | . | 38%[activator] | . | . | -2% | -5%[46.1 µM]
CN(C)c1nc(OCCNC(=O)COc2ccc(Cl)cc2Cl)nc(N2CCCCC2)n1 | -3.6% | ? | 5% | 0% | 7% | -52% | ? | ?
Cc1ccc(S(=O)(=O)CCC(=O)NCCN2C(=O)S/C(=C\c3ccccc3)C2=O)cc1 | -7.3% | -3% | . | ? | -1% | 7% | 29% | -23%
O=C(O)CCCC(=O)Nc1ccn(-c2ccccc2)n1 | 2.2% | -1% | -3% | 12% | 0% | 6% | -1% | 0%&0%
CCOC(=O)N1CCN(C(=O)c2cc3c(=O)n4cccc(C)c4nc3s2)CC1 | . | 3%[46.1 µM] | 7% | 2% | 0% | -4% | . | 6%[46.1 µM]
Cn1cnc2c1c(=O)[nH]c(=O)n2Cc1ccccc1 | . | . | 2% | -1% | 0% | -5% | . | .
CN(C)c1ccc(CNC(=O)C2CCN(S(=O)(=O)c3ccc4c(ccn4C)c3)CC2)cc1 | -2.0% | 5%[46.1 µM] | . | -15% | . | . | -6% | .
CCCCCCn1c(-c2ccco2)nc2oc3cc(OC)ccc3c(=O)c2c1=O | -2.6% | -18% | -5% | -8% | -13% | 13µM* | -10% | -20%
COc1ccccc1-n1c(SC)nc(O)cc1=O | 0.9% | . | -1% | -12% | -3% | ? | -2% | .
COc1ccc(N2CCN(Cc3nc(Cc4cccc(F)c4)no3)C(C)C2)cc1 (stereo not drawn) | . | -20%[46.1 µM] | 3% | 0% | 1% | -2% | . | -5%[46.1 µM]
CC(C)(C)C1CCc2c(C(=O)NNC(=O)/C=C/C(=O)O)csc2C1 (stereo not drawn) | -2.4% | -8% | -3% | -14% | -20% | 3% | 18% | -37%
Cn1cnnc1SCC(=O)Nc1cccc(S(=O)(=O)N2CCCCCC2)c1 | -0.4% | 14% | 2% | -2% | 1% | 3% | 3% | ?
C/C=C/C=C/C(=O)[C@@H]1[C@@H]([C@]2(C)OC(=O)C(C)=C2O)[C@H]2/C(=C(O)/C=C/C=C/C)C(=O)[C@]1(C)C(=O)C2(C)O (stereo partly drawn) | . | . | 9% | -11% | 1% | -3% | . | .
CC(C)n1nnnc1SCC(=O)N1CCOCC1 | -0.1% | -1% | -14% | -11% | 5% | 3% | -2% | 16%[46.1 µM]
Cc1cc(C(=O)OC(C)C(=O)NC2CCCCC2)c(C)o1 (stereo not drawn) | . | -2% | -18% | ? | 2% | . | . | -12%
COc1cc(/C=N/NC(=O)c2cccc(S(=O)(=O)N3CCOCC3)c2)cc(OC)c1O | . | -4%[46.1 µM] | -5% | -26% | -1% | . | . | -1%[46.1 µM]
Cc1c(Cl)cccc1NC(=O)c1ncn[nH]1 | . | . | 5% | -18% | 0% | -3% | . | .
Cc1cccc2cc(CNC3CCCC3)c(Cl)nc12 | . | 17% | -12% | 19% | 0% | 1% | . | ?
CS(=O)(=O)Cc1ccc(C(=O)N(CCc2ccccc2)Cc2ccccc2)cc1 | . | . | 5% | -3% | -3% | -17% | . | .
O=C(CSc1nnc(CNC(=O)c2ccccc2)o1)NCc1ccco1 | . | . | -1% | 0% | 0% | 4% | . | .
COc1ccc2c(c1)C1(Nc3ccccc3C(=O)N1c1ccccc1)C(=O)N2 (stereo not drawn) | 2.6% | 0% | 7% | . | ? | -9% | 10% | -13%
Fc1ccc(-c2nc3ccncc3[nH]2)cc1 | -2.5% | 1% | -20% | 21% | -19% | 8% | -15% | 1%
O=C(CN1CCOCC1)Nc1nc(-c2ccc3c(c2)CCN3S(=O)(=O)c2ccccc2)cs1 | -1.1% | ? | 17% | 22µM* | 0% | 12% | ? | ?
CCC(=O)Nc1ccc(-n2nnnc2SCC(=O)NNC(=O)c2ccco2)cc1 | . | . | -8% | -7% | 3% | -46% | . | .
COC(=O)c1sccc1NC(=O)/C=C/c1ccc(Cl)cc1Cl | -0.6% | 29% | 3% | 17% | 9% | 5% | ? | ?
Cc1nn(CC(=O)O)c(C)c1Cl | 3.2% | 1% | 9% | . | 4% | 6% | -11% | -11%
COCCCNCC(=O)c1c(N)n(Cc2ccccc2)c(=O)n(C)c1=O | -2.3% | -5% | 3% | -6% | 3% | 3% | -4% | 2%
O=C(NCC(c1ccco1)N1CCc2ccccc21)c1cccc([N+](=O)[O-])c1 (stereo not drawn) | . | 5.6µM* | 4% | -27% | -21% | . | . | ?
CSc1ccccc1OCc1cc(C(=O)N2CCNC(=O)C2)no1 | . | 10% | ? | -11% | -8% | 1% | . | 9%
COc1ccc(/C=C(\C#N)c2nc(-c3ccc(Cl)c(Cl)c3)cs2)cc1OC | -1.6% | -6%[46.1 µM] | . | -1% | . | . | 11% | .
CCOC(=O)C1=C(O)C(=O)N(Cc2ccc(C(C)(C)C)cc2)CC1 | . | -11% | 0% | -18% | 0% | 12% | . | ?
COc1ccc2c(COC(=O)c3cccc(S(=O)(=O)NCC(C)C)c3)cc(=O)oc2c1 | . | ? | 3% | 0% | 1% | 4% | . | -15%
CC(C)CN(C(=O)COC(=O)c1c2c(nc3ccccc13)CCC2)c1c(N)n(Cc2ccccc2)c(=O)[nH]c1=O | . | 2% | 3% | -17% | 19% | 0% | . | -18%
NC(N)=N/N=C/c1ccc(N2CCOCC2)cc1 | . | -8% | 5% | 3% | 2% | . | . | ?
Cc1ccc(NC(=O)CSc2nc(-c3cccs3)cc(C(F)(F)F)n2)cc1C | -3.5% | ? | . | -24% | . | . | 0% | ?
CCC1CCc2sc(C(=O)N(C)CC(=O)Nc3ccc(OC)cc3)cc2C1 (stereo not drawn) | . | 4% | -5% | -8% | -7% | . | . | -1%
CCCC(=O)c1c(NC)cc(C)oc1=O | 1.3% | -16% | -3% | 2% | 7% | 2% | 1% | 0%
OCCNCCCCCOc1ccc(F)cc1 | 4.5% | -8% | 5% | . | 1% | -2% | ? | 4%
Clc1ccc(-c2nnc(NCCN3CCCC3)c3ccccc23)cc1 | . | . | -6% | 0.89µM* | 2% | 1% | . | .
Cc1ccc(-n2ncc(N(C)C)c(Cl)c2=O)cc1 | 2.1% | -26% | 24% | -38% | -1% | 18% | 1% | ?

Compound activity from PubChem.
